# Source: PubChem (several laboratories)
# FGF22 binding: binders of recombinant human FGF22 by thermal shift | Q9HCT0 | SYPRO orange fluorescence; percent of sucrose octasulfate shift, DMSO zero | calls only at 9.99 µM | 340,000 tested, 1.5% active | AID 651658;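 active = melting point raised past a set limit in the mean and every replicate; three in four hits are not shown here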
# Target sequence (Q9HCT0 whole entry, looked up): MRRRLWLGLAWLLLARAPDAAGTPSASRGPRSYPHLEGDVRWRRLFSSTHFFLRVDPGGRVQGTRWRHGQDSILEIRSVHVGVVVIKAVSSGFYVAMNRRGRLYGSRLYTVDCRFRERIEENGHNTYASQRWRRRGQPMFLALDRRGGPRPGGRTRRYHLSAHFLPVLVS
# B2AR ag: human beta-2 adrenergic receptor agonism by FAP; P07550; Am2.2-beta2AR cells, FAP receptor internalization, flow cytometry; reference of the scale not given here; response, % (no concentration beside the values); 340,000 tested, 0.43% active;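 active = response above a set limit, near 3 SD of response in nonfluorescent compounds, cut at about 42% in these data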;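 note: stock transfer was 100 nL into about 11 µL; a reference agonist was the positive control; negative values mostly stem from fluorescent compounds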
# Target sequence (P07550 whole entry, looked up): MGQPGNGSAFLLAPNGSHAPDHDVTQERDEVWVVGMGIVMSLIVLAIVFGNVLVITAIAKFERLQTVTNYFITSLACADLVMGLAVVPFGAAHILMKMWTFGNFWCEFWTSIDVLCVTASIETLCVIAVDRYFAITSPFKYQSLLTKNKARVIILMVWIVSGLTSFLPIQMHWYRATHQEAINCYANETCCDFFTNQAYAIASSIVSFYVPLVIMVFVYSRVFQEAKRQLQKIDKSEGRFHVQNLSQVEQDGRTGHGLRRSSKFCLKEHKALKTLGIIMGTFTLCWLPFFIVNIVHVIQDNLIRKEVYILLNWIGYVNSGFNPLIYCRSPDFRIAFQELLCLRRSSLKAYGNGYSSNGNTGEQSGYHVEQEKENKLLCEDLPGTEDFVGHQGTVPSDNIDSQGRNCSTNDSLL
# HNF4A DNA FP: change in binding of human HNF4 alpha to DNA. P41235. HNF4a-FITC DNA binding, fluorescence polarization, 1 h. activity change, % at 10 µM. 360,000 tested, 0.3% active. AID 1224865; in the data active = activity change above about 30%, passing the limit was not always enough;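 note: controls were the assay level and a saturating level of protein; the project sought stronger binding though the title names inhibitors; some compounds called inactive have numbers as strong as hits; positive values seem to mean higher polarization but the record does not say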
# Ecoli rRNA inh: selective bacterial rRNA inhibition in E. coli; AID 720706; GFP signal change (wild-type ribosome), % (test concentration not listed); E. coli WT GFP vs humanized-ribosome RFP mutants, fluorescence, 24 h; stronger effect = lower value; DMSO median 0, no signal -100; 350,000 tested, 1.6% active;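 active = significant combined selectivity score with lowered wild-type GFP, culture density cut under 30%, mutant RFP and density less affected; inactive = any of these conditions unmet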; note: one replicate is shown; some compounds called inactive have numbers as strong as hits
# UCH37 inh: blocks the human deubiquitinase UCH37; Q9Y5K5; purified proteasome/UCH37, Ub-AMC cleavage fluorescence; inhibition, % (concentration not given with the values); 330,000 tested, 0.33% active;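 active = mean of two replicates above 20%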;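 note: 0% = compound-free wells with enzyme and 100% = wells lacking proteasome; stock transfer was 100 nL into about 20 µL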
# Target sequence (Q9Y5K5 whole entry, looked up): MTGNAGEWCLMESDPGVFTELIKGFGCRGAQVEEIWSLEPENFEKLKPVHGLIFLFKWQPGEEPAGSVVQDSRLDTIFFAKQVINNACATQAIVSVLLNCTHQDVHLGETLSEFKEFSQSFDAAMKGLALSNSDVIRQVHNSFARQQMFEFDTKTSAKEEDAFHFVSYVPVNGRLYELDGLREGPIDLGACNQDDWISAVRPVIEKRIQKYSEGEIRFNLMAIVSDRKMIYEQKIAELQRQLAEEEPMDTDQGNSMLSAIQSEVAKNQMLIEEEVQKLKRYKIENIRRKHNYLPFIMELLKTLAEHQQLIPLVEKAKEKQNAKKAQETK
#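 system = Proteasome-associated human UCH37 deubiquitinase | amount = 0.15 nM proteasome as dispensed | medium = pH 7.4 Tris-HCl (50 mM) with ovalbumin, ATP-MgCl2, DTT | incubation = 30 min preincubation with enzyme, 25 min cleavage at room temperature | detection = AMC fluorescence 355/460 nm | read-out basis = percent inhibition | controls = no-proteasome and no-compound wells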
# ALR H2O2 inh: inhibitors of human sulfhydryl oxidase ALR | AID 485317 | inhibition, % (concentration not given with the values) | purified ALR, DTT oxidation, H2O2 HRP-luminol luminescence | P55789 | 290,000 tested, 3.8% active;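 active = mean and each replicate at 75% or more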;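 note: stock transfer was 7.5 nL into about 7.5 µL; 0% = neutral wells and 100% = wells with inactivated enzyme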
# Ecoli growth: E. coli growth inhibition. Escherichia coli growth, OD600, 23 h; stronger effect = lower value. OD600 absorbance (concentration not given with the values). 330,000 tested, 0.21% active. AID 1053175;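 active = OD600 absorbance below the run mean of sample wells minus 3.6 SD, in any replicate, cut at about 0.56 in these data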;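 note: stock transfer was 300 nL into about 60 µL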
# Ecoli rRNA inh OD600: second read-out of Ecoli rRNA inh, no call of its own (marks repeat the call); OD600 change, %; measured here: OD600 growth;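 optical density of the mix in the first replicate; 0 = DMSO median and -100 = no signal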
# Ecoli rRNA inh RFP: second read-out of Ecoli rRNA inh, no call of its own (marks repeat the call); RFP signal change, %; measured here: RFP humanized mutant strains;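 first replicate; 0 = DMSO median and -100 = no signal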
# * marks the source's active call; other numbers are inactive results; i = inactive; x = not tested or not shown; & = joins results of further samples. This is a subset; the hit share may differ from the screen's.
no. | Molecule | FGF22 binding | B2AR ag | HNF4A DNA FP | Ecoli rRNA inh | Ecoli rRNA inh OD600 | Ecoli rRNA inh RFP | UCH37 inh | ALR H2O2 inh | Ecoli growth
1 | COc1cc(OC)c(NC(=O)c2ccccc2F)cc1Cl | i | -7 | 2.1 | 18 | 15 | 3.6 | -70 | -5 | 0.74
2 | O=C(NC1CCN(S(=O)(=O)c2ccc(F)cc2)CC1)c1cccc(F)c1 | i | 5 | -2.6 | 30 | 18 | 2.9 | 1.0 | -2 | 0.7
3 | COc1ccc(OC)c(-n2nnnc2SCC(=O)N2CCN(C(=O)c3ccco3)CC2)c1 | i | -4 | -1.4 | 11 | 3 | 1.8 | 1.7 | -11 | 0.63
4 | CCc1ccc(NC(=O)c2cnn3c(C(F)F)cc(C)nc23)cc1 | i | -2 | 0.9 | -3 | 5 | 0.3 | -3.1 | -4 | 0.71
5 | CCCSc1nc(C)cc(=O)[nH]1 | x | -6 | 2.5 | x | x | x | 0.0 | -8 | 0.69
6 | COc1cccc(CNCCc2c[nH]c3ccccc23)c1OCc1ccccc1F | x | 29 | 2.2 | x | x | x | 1.3 | 9 | 0.63
7 | Cc1ccc(C)c(OCCC(=O)N(C)CC(=O)Nc2c(C)cccc2C)c1 | i | -3 | 2.4 | 5 | 4 | -0.2 | 2.1 | x | 0.69
8 | CCOC(=O)N1CCN(C(=O)C2CCN(Cc3ccc(OC)cc3OC)CC2)CC1 | i | -3 | 0.8 | 13 | 12 | -2.9 | 3.1 | -3 | 0.67
9 | O=C(COC(=O)c1ccc(Cl)nc1)Nc1ccc(Cl)cc1 | i | -2 | -0.2 | 0 | 1 | -0.5 | 3.7 | x | 0.69
10 | O=C(Nc1n[nH]c(C(F)(F)F)n1)c1cccs1 | i | 6 | 0.5 | 6 | 2 | -0.5 | 3.1 | -15 | 0.68
11 | O=C(CO/N=C/c1ccc(OC(F)F)cc1)NC1CCCC1 | i | 5 | -3.5 | 0 | 2 | -1.8 | x | -7 | x
12 | CCCc1nnc(NC(=O)CCC(=O)NCCc2ccc(OC)c(OC)c2)s1 | x | 1 | 1.3 | x | x | x | x | 1 | x
13 | CCOc1cc(/C=N/NC(=O)CNc2ccc(C)cc2)ccc1OC(=O)c1ccccc1 | x | -3 | -5.0 | x | x | x | x | 5 | x
14 | COc1cc(OC)cc(C(=O)N2CCC(C(=O)c3ccc(F)cc3)CC2)c1 | i | 2 | 0.0 | -16 | -16 | -1.0 | 2.7 | -12 | 0.66
15 | Nc1c(Cl)cc(-c2csc(NCCc3nc4cc(Cl)c(Cl)cc4n3CCCO)n2)cc1Cl | i | 4 | 2.0 | -5 | 16 | 15 | 0.2 | 5 | 0.67

# The closing 2 records of the section above are carried over, then new ones follow.
no. | Molecule | FGF22 binding | B2AR ag | HNF4A DNA FP | Ecoli rRNA inh | Ecoli rRNA inh OD600 | Ecoli rRNA inh RFP | UCH37 inh | ALR H2O2 inh | Ecoli growth
14 | COc1cc(OC)cc(C(=O)N2CCC(C(=O)c3ccc(F)cc3)CC2)c1 | i | 2 | 0.0 | -16 | -16 | -1.0 | 2.7 | -12 | 0.66
15 | Nc1c(Cl)cc(-c2csc(NCCc3nc4cc(Cl)c(Cl)cc4n3CCCO)n2)cc1Cl | i | 4 | 2.0 | -5 | 16 | 15 | 0.2 | 5 | 0.67
16 | O=C(COc1ccc(Cl)cc1)NCc1nnc(SCC(=O)NC2CCCC2)o1 | x | -7 | -1.7 | x | x | x | 6.1 | -5 | 0.72
17 | COc1cccc(-c2ccc3ncnc(NCc4cccnc4)c3c2)c1 | i | -3 | -3.2 | -3 | 10 | 4.6 | 0.1 | -1 | 0.78
18 | COc1ccc(S(=O)(=O)N2CCN(CC(=O)c3ccc(O)c(O)c3)CC2)cc1 | i | 4 | -3.9 | 2 | 2 | -3.5 | 2.8 | 99* | 0.7
19 | COc1ccc(NC2=CC(=O)CC(C)(C)C2)cc1 | i | -3 | -0.2 | 10 | 12 | 3.0 | 4.3 | -2 | 0.66
20 | CCC(=O)Nc1ccc(/C(C)=N\NS(=O)(=O)c2ccc(C)cc2)cc1 | x | -3 | 2.9 | x | x | x | x | 0 | x
21 | CCN(CC)S(=O)(=O)c1ccc(NC(=S)Nc2ccccc2)cc1 | i | 6 | 0.2 | -5 | -2 | -1.4 | -2.3 | 0 | 0.64
22 | COC(=O)c1cc2ccsc2n1Cc1cccc(F)c1 | i | -1 | -3.2 | -12 | -12 | -22 | 4.6 | 4 | 0.7
23 | O=C(Nc1nccs1)c1ccc(S(=O)(=O)c2ccccc2)cc1 | x | 1 | -0.6 | 9 | 21 | 14 | -0.2 | -33 | 0.71
24 | COc1ccc(OC)c(NC(=O)c2ccccc2SC)c1 | x | 4 | 3.0 | x | x | x | 1.0 | -10 | 0.72
25 | Cc1cc(C)c2c(N=NN(C)C)[nH]nc2n1 | x | -3 | -2.1 | x | x | x | 7.3 | -2 | 0.58
26 | Cc1ccc(-c2csc(C(O)c3cccc(Cl)c3)n2)cc1C (stereo unspecified) | i | x | 5.5 | -34 | -40 | -8.7 | x | x | x
27 | CCCCNC(=O)C(NC(=O)c1ccc(-c2ccccc2)cc1)C(=O)c1ccccc1 (stereo unspecified) | i | x | 2.4 | 2 | 14 | -2.1 | x | x | x
28 | O=c1c(-c2cnn(-c3ccccc3)c2)coc2cc(O)ccc12 | x | -4 | -0.1 | x | x | x | -19 | -1 | 0.61
29 | O=C(c1ccc(C#CC2(O)CCCCC2)cc1)N1CCN(Cc2ccccc2)CC1 | x | 7 | -2.8 | x | x | x | 1.1 | -1 | 0.74
30 | C/C(=N\NC(=O)c1c(Br)c(C)nn1C)c1cccc(NC(=O)c2ccccc2C)c1 | i | 2 | -1.6 | -3 | 9 | 11 | x | -2 | x
31 | Cc1cc(C)nc(NC(N)=NC2CCCCC2)n1 | x | 3 | 0.0 | x | x | x | 3.7 | -44 | 0.64
32 | CN(C(=O)c1cccc(NC(=O)Cc2cccc(NC(=O)C3CCN(C(=O)c4ccccc4)CC3)c2)c1)C1CC1 | i | 0 | -1.3 | -16 | -12 | 0.3 | -1.2 | x | 0.69
33 | O=C(c1cc(-c2cccc(Cl)c2)nc2ccccc12)N1CCN(c2ccccn2)CC1 | i | 17 | 0.7 | -4 | 0 | 2.9 | -0.9 | -2 | 0.75
34 | CCOc1ccc(NC(=O)CN2CCN(Cc3c(F)cccc3F)CC2)cc1 | i | 0 | -0.3 | 1 | -2 | -2.0 | 0.5 | -5 | 0.67
35 | CCc1nc2ccc(C(=O)N3CCCC(C(N)=O)C3)cn2c1N(C)Cc1ccc(OC)cc1 (stereo unspecified) | i | x | 3.1 | 2 | -16 | -1.1 | x | x | x
36 | Cc1ccc(C(C)n2cc(C(=O)NCc3cccnc3)nn2)cc1 (stereo unspecified) | x | 0 | -3.2 | x | x | x | 1.1 | 2 | 0.65
37 | O=C(COc1ccccc1F)NCC(c1ccc(F)cc1)N1CCOCC1 (stereo unspecified) | i | -7 | -0.5 | 3 | 7 | -1.4 | -2.7 | -2 | 0.68
38 | S=c1[nH]c(-c2ccccc2)cn1/N=C/c1ccncc1 | i | -3 | 2.1 | 11 | 11 | -2.8 | x | 56 | x
39 | O=C(Nc1ccc(F)cc1)c1cccnn1 | i | -8 | -1.3 | -8 | -6 | -6.5 | 2.4 | -3 | 0.63
40 | COc1ccc(N2C(=O)CC(N3CCC(O)(c4ccc(Cl)cc4)CC3)C2=O)cc1 (stereo unspecified) | x | 0 | 0.8 | x | x | x | -0.4 | 1 | 0.67
41 | COc1ccccc1C(=O)COC(=O)c1cc(=O)[nH]c2ccccc12 | i | -12 | -3.7 | 10 | 17 | -1.4 | -11 | 2 | 0.72
42 | COc1ccc(-c2oc(=O)c3cc(OC)c(OC)cc3c2C#CCCCO)cc1 | i | 12 | -0.3 | -5 | 18 | 1.1 | -1.2 | -5 | 0.7
43 | NC12NC(=O)C3(O)C4C5CC(C6C5C3C61)C42 (stereo unspecified) | i | 1 | -3.8 | 7 | 1 | -0.4 | -2.7 | -2 | 0.73
44 | COc1ccc(-n2nnnc2-c2cnc3cc4c(cc3c2C)OCO4)cc1 | x | -14 | -0.4 | x | x | x | -0.9 | -1 | 0.7
45 | COc1ccc(S(=O)(=O)N(C)C[C@@H]2Oc3ccc(NS(=O)(=O)c4cn(C)cn4)cc3C(=O)N([C@@H](C)CO)C[C@@H]2C)cc1 | i | -6 | 5.7 | 2&13 | 7&7 | -0.2&-5.3 | 0.0 | 1 | 0.8
46 | COc1ccc(Nc2nnc(SCC(=O)NC(=O)Nc3ccc4c(c3)OCCO4)s2)cc1 | i | 8 | 2.0 | -2 | 7 | -3.7 | x | x | x
47 | COc1ccc(-c2csc(NC(=O)c3cc(-c4cccs4)nc4ccccc34)n2)c(OC)c1 | x | -4 | -0.1 | x | x | x | -3.5 | x | 0.72
48 | Cc1nc(CSc2nnc(N)s2)cs1 | i | -1 | 1.8 | 21 | 10 | 0.4 | -3.0 | 8 | 0.69

# Of the compounds above, these contain fluorine.
no. | Molecule | FGF22 binding | B2AR ag | HNF4A DNA FP | Ecoli rRNA inh | Ecoli rRNA inh OD600 | Ecoli rRNA inh RFP | UCH37 inh | ALR H2O2 inh | Ecoli growth
1 | COc1cc(OC)c(NC(=O)c2ccccc2F)cc1Cl | i | -7 | 2.1 | 18 | 15 | 3.6 | -70 | -5 | 0.74
2 | O=C(NC1CCN(S(=O)(=O)c2ccc(F)cc2)CC1)c1cccc(F)c1 | i | 5 | -2.6 | 30 | 18 | 2.9 | 1.0 | -2 | 0.7
4 | CCc1ccc(NC(=O)c2cnn3c(C(F)F)cc(C)nc23)cc1 | i | -2 | 0.9 | -3 | 5 | 0.3 | -3.1 | -4 | 0.71
6 | COc1cccc(CNCCc2c[nH]c3ccccc23)c1OCc1ccccc1F | x | 29 | 2.2 | x | x | x | 1.3 | 9 | 0.63
10 | O=C(Nc1n[nH]c(C(F)(F)F)n1)c1cccs1 | i | 6 | 0.5 | 6 | 2 | -0.5 | 3.1 | -15 | 0.68
11 | O=C(CO/N=C/c1ccc(OC(F)F)cc1)NC1CCCC1 | i | 5 | -3.5 | 0 | 2 | -1.8 | x | -7 | x
14 | COc1cc(OC)cc(C(=O)N2CCC(C(=O)c3ccc(F)cc3)CC2)c1 | i | 2 | 0.0 | -16 | -16 | -1.0 | 2.7 | -12 | 0.66
22 | COC(=O)c1cc2ccsc2n1Cc1cccc(F)c1 | i | -1 | -3.2 | -12 | -12 | -22 | 4.6 | 4 | 0.7
34 | CCOc1ccc(NC(=O)CN2CCN(Cc3c(F)cccc3F)CC2)cc1 | i | 0 | -0.3 | 1 | -2 | -2.0 | 0.5 | -5 | 0.67
37 | O=C(COc1ccccc1F)NCC(c1ccc(F)cc1)N1CCOCC1 (stereo unspecified) | i | -7 | -0.5 | 3 | 7 | -1.4 | -2.7 | -2 | 0.68
39 | O=C(Nc1ccc(F)cc1)c1cccnn1 | i | -8 | -1.3 | -8 | -6 | -6.5 | 2.4 | -3 | 0.63
